From PubChem BioAssay
VDR inh: Inhibitors of the vitamin D receptor (VDR): qHTS. hit rate 0.93% among 400,000. VDR-SRC2-3 peptide fluorescence polarization, 2 h. AID 504847, 2011. Potency, µM, inactives show max response, negative = inhibition, usual class: inhibitors; active = well fitted inhibition curve with a large enough effect; inconclusive = small, poorly fitted or top-dose-only effect, or another doubt; inactive = no such curve, though single readings can be large or run the other way; also: series mostly up to about 120 µM
Target sequence (P11473 whole entry, looked up): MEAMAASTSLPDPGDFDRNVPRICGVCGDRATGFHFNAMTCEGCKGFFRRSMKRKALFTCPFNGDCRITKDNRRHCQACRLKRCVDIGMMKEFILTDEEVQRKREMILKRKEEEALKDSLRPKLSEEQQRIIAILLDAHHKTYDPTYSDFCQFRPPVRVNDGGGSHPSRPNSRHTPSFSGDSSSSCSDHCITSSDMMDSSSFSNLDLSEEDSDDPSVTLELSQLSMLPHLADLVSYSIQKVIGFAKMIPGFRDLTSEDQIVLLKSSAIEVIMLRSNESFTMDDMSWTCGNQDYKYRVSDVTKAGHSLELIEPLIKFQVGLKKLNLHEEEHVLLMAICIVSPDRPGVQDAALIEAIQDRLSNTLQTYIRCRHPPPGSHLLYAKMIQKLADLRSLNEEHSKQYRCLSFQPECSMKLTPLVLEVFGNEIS
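Reagent solutions, kept cold and dark, are dispensed first; compounds are then pinned in at 23 nl, plates briefly spun, and incubated 2 h at ambient temperature. Inhibition of VDR–SRC2-3 peptide binding is read by fluorescence polarization.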
* hit, by the source's call; ? = inconclusive; & = joins results of further samples; [ ] = dose if it differs, or a comment. % is scaled to controls: 0 for no effect and ±100 for the full control effect; potency is read from the fitted curve at half-maximal effect.

VDR inh,SMILES
-11.4%,COc1ccc(C(=O)N2CCNC(=O)C2CC(=O)Nc2cccc(Cl)c2Cl)cc1 (configuration not stated)
-14.2%,O=C(COC(=O)C1CC1)Nc1ncc(Cl)cc1Cl
-10.6%,COc1ccc(OC)c(NC(=O)C(=O)NNC(=O)COc2ccc(Br)cc2C)c1
10.7%,O=C(Nc1ccccc1C(=O)NCc1ccc(Cl)cc1)c1ccco1
1.3%,COc1ccc(OC)c(C2CC(c3ccc(NS(C)(=O)=O)cc3)=NN2C(=O)c2ccccc2)c1 (configuration not stated)
16.6%,Cn1c(=O)[nH]c(=O)c2c1nc(Br)n2CCCCSc1nc2ccccc2o1
-5.2%,C=CCn1c(O)c(N=NC(=O)CNC(=O)/C=C/c2ccco2)c2ccccc21
-5.5%,CCc1ccccc1NC(=O)Nc1ccc2c(c1)OCO2
0.4%,CCOc1cc(CNc2ccccc2)cc(Br)c1OCc1ccc(F)cc1
-5.1%,O=C(CSc1ccc([N+](=O)[O-])cc1)Nc1cccc(S(=O)(=O)N2CCOCC2)c1
-18.0%,CC(C)CC(OC(=O)c1ccc(Cl)nc1)C(=O)NC1CCCC1 (configuration not stated)
-4.3%,Cn1c(=O)n(C)c2cc(S(=O)(=O)NCCc3ccccc3)ccc21
-18.1%,CCOC(=O)c1ccccc1NC(=O)C1CC(=O)N(C2CCCCC2)C1 (configuration not stated)
2.2%,COc1ccccc1NC(=O)CS(=O)(=O)c1cn(CC(=O)N(C(C)C)C(C)C)c2ccccc12
13.3%,CCCCCn1nc(C)c(/C=N/NC(=O)c2ccoc2C)c1C
-3.6%,N#CC1(c2ccccc2)CCCN1C(=O)c1ccccc1Br (configuration not stated)
4.3%,COc1cccc(-c2nc(CS(=O)(=O)CC(=O)NCCc3ccc(C)cc3)c(C)o2)c1
-6.0%,Cc1nc2cc(NCc3cccs3)ccc2n1C
-5.2%,Cc1nn(-c2ccccc2)c(NC(=O)c2cccs2)c(-c2ccc(Cl)cc2)c1=O
-12.8%,Cc1ccccc1OCc1nc2ccccc2c(=O)n1/N=C/c1cccc([N+](=O)[O-])c1
-6.2%,NC(=O)C1(c2ccccc2)CCCN1C(=O)c1ccc(Br)cc1 (configuration not stated)
-21.4%,COc1ccc(S(=O)(=O)n2oc(=O)cc2-c2ccccc2)cc1OC
4.2%,Cc1ccc(/C=C2\CCC(C3CCCC3)C2=O)cc1 (configuration not stated)
7.2%,O=C(NCc1ccco1)c1cc2n(n1)C(C(F)(F)F)CC(c1ccc(F)cc1)N2 (configuration not stated)
?,C/C(=N\Nc1nc(C(C)(C)C)cs1)c1ccc(O)cc1
13.7%,O=C(NC1CCCC1)C1CCCN(S(=O)(=O)c2cccc3cccnc23)C1 (configuration not stated)
8.9%,CC(NC(=O)C1CCN(C(=O)N2CCOc3ccccc32)CC1)c1ccccc1 (configuration not stated)
2.4%,CCCCC(=O)NC(c1ccccc1Cl)c1c(O)ccc2ccccc12 (configuration not stated)
-9.5%,O=C(O)CC(NC(=O)Cc1ccccc1)c1cc([N+](=O)[O-])ccc1Cl (configuration not stated)
7.0%,O=C(CSc1nc(-c2ccco2)cc(C(F)(F)F)n1)NC1CCCC1

2 entries drawn at random from the list so far, as already listed:
VDR inh,SMILES
8.9%,CC(NC(=O)C1CCN(C(=O)N2CCOc3ccccc32)CC1)c1ccccc1 (configuration not stated)
7.0%,O=C(CSc1nc(-c2ccco2)cc(C(F)(F)F)n1)NC1CCCC1

The main list resumes, starting 2 compounds before the break.
VDR inh,SMILES
-9.5%,O=C(O)CC(NC(=O)Cc1ccccc1)c1cc([N+](=O)[O-])ccc1Cl (configuration not stated)
7.0%,O=C(CSc1nc(-c2ccco2)cc(C(F)(F)F)n1)NC1CCCC1
1.5%,N#Cc1ccc(-n2nnc3ccccc3c2=O)c([N+](=O)[O-])c1
4.1%,O=C(NCCc1ccc(Cl)cc1Cl)c1cccnc1
7.9%,CS(=O)(=O)N1CCC(Oc2ccccc2C(=O)N2CCNC(=O)C2)CC1
9.8%,CCCCCCOC(=O)C1=C(C)NC(=O)NC1c1ccc(O)cc1 (configuration not stated)
1.4%,CC1CCN(S(=O)(=O)c2nnc(NC(=O)c3cccc(F)c3)s2)CC1
1.2%,O=C(OCC(=O)N1CCCCC1)c1cc2ccccc2cc1O
-10.5%,Cc1ccc(Cn2c(=O)c3c(nc4n3CCN4Cc3ccco3)n(C)c2=O)cc1
11.0%,O=S(=O)(NCc1ccccn1)c1ccc2c(c1)OCCO2
-5.2%,CCOC(=O)c1c(C)c(C(=O)NCc2ccc3c(c2)OCO3)c(C)n1C
-16.1%,CCOC(=O)CSc1nc2c(sc(=S)n2CCc2ccccc2)c(=O)n1Cc1ccco1
-6.2%,COC(=O)C1=C(C)NC(=O)NC1c1cn(-c2ccccc2)nc1-c1ccc(OC)c(Br)c1 (configuration not stated)
-5.2%,CCN(CC)S(=O)(=O)c1ccc(N2CCOCC2)c(NS(=O)(=O)c2ccc(OC)cc2)c1
?,COCC(=O)N1CCC2(CC1)CCN(c1cccc(-c3ccccc3)c1)CC2
-7.2%,COc1cc(F)cc(-c2ccc3c(c2)c(C#Cc2ccsc2)c(-c2cc(OC)cc(OC)c2)n3C)c1
1.0%,CCCCn1c(N)c(Sc2ccc([N+](=O)[O-])cc2)c(=O)[nH]c1=O
23.6%,O=C(/C=C/c1ccco1)Nc1ccc(Oc2ccc(Cl)cc2)cc1
-1.6%,COc1ccc(-c2cc(C(F)F)n3ncc(C(=O)NCC4CCCO4)c3n2)cc1 (configuration not stated)
-20.1%,COc1ccc(CCC(=O)NC2CCCN(Cc3ccc(Cl)cc3)C2)cc1OC (configuration not stated)
-6.7%,FC(F)(F)c1cc(C(F)(F)F)c2ccc(N/N=C/c3ccccc3)nc2n1
-6.5%,COc1cccc(C(=O)Nc2cnc(NC(=O)c3ccco3)cc2C)c1
3.6%&4.8%,Cc1ccc(NC(=O)Cn2c(=O)oc3ccccc32)cc1Cl
-5.3%,COc1ccc(-n2cnnc2SC(C)C(=O)Nc2cccc([N+](=O)[O-])c2)cc1 (configuration not stated)
?,CCOCCCn1c(SCC(=O)Nc2ccc(OC)cc2)nc2ccccc2c1=O
9.1%,Cc1cccc(OCc2nc(CC(=O)Nc3ccc(Cl)cc3)cs2)c1
-11.8%,N#Cc1c(-c2ccco2)cc(-c2ccc(F)cc2)nc1N
-5.9%,Cc1ccc(C(=O)O)cc1S(=O)(=O)N1CCSCC1
1.2%,O=C(COc1ccc2c3c(c(=O)oc2c1)CCC3)NCc1cccnc1
-3.3%,O=C(N/N=C/c1ccc(-c2ccccc2C(=O)O)o1)c1cccs1
3.9%,CCCCNC(=O)CN1CCN(c2ncc(NC(=O)c3ccc(Cl)cc3)cc2C(=O)O)CC1
14.8%,CN(C1CCCCC1)S(=O)(=O)c1ccc(NC(=O)C2CCCCC2)cc1
-17.1%,O=C(c1cccs1)N1CCN(c2ccc(F)cc2)CC1
1.5%,CCC1Sc2ccc(S(=O)(=O)CCC(=O)NCc3ccc(C)o3)cc2NC1=O (configuration not stated)
-2.0%,Cc1c(NC(=O)c2cc(Br)ccc2Cl)cccc1-n1cnnn1
14.5%,Cc1ccc(-c2onc(C)c2C)cc1S(=O)(=O)N1CCOc2ccc(Cl)cc21
4.5%,O=C1CCN(Cc2ccco2)C(=S)N1
8.2%,CS(=O)(=O)Nc1cccc2cccnc12
-11.1%,CCC(=O)N1c2ccc(S(=O)(=O)CCC(=O)N3CCN(c4cc(C)ccc4C)CC3)cc2CC1C (configuration not stated)
0.3%,CCCn1cnc2c(Sc3c([N+](=O)[O-])ncn3C)nc(N)nc21
11.6%,CCN(CC)c1nn2c(=O)c(C(=O)NCc3cccc(C)c3)cnc2s1
30.7%[activator],O=C(COc1coc(CN2CCN(c3ccccc3F)CC2)cc1=O)Nc1ccccc1
0.8%,CSCC(=O)Nc1cc(C)on1
-7.6%,CCc1c(C)sc(NC(=O)/C=C/C(=O)O)c1C(N)=O
-9.0%,CC(=O)c1ccsc1B(O)O
0.6%,FC(F)(F)c1cc(-c2cccs2)nc(N2CCOCC2)n1
18.5%,Cc1nc(OCC(=O)c2ccc(Cl)cc2)c(C#N)c2c1COC(C)(C)C2
-12.5%,O=C(CSc1oc(-c2ccc(F)cc2)nc1S(=O)(=O)c1ccc(F)cc1)NCC1CCCO1 (configuration not stated)
-10.0%,Fc1ccc(NC(=S)NN=Cc2ccccc2Cl)cc1
11.8%,CN(C)S(=O)(=O)c1ccc(NC(=O)N2CCN(c3ccccc3Cl)CC2)cc1
-11.5%,Oc1ccccc1CNCCCN1CCOCC1
6.6%,Oc1ccc(/C=N/NC(=S)N2CCOCC2)cc1
-6.6%,CC(C)C(NS(=O)(=O)c1cccc2nsnc12)C(=O)Nc1nc2ccc(Cl)cc2s1 (configuration not stated)
0.8%,COc1ccc(OC)c(C2N(c3ccccn3)C(=O)C3CCCN32)c1 (configuration not stated)
-4.3%,COc1cc(NC2c3ccccc3C(=O)N2c2cc(C)ccn2)cc(OC)c1OC (configuration not stated)
5.9%,CCCNS(=O)(=O)c1cc2c3c(c1)CCN3C(=O)CC2
11.7%,Cc1ccc(NC(=O)c2nc(-c3ccncc3)no2)c(Cl)c1
-4.3%,COc1ccc(OC)c(CNS(=O)(=O)c2c(C)nc3scc(C)n3c2=O)c1
-8.5%,Clc1ccc(C2CC(c3ccco3)n3ncnc3N2)cc1Cl (configuration not stated)
-1.7%,COc1cccc(CN2CC(C(=O)NCC3CCOCC3)CCC2=O)c1 (configuration not stated)
-15.0%,CCn1c(=O)c(=O)n(CC)c2cc(S(=O)(=O)N3CCc4ccccc43)ccc21
-10.2%,Cc1c(Br)c(C(=O)NCc2cc3cc(Cl)ccc3[nH]2)nn1C

5 compounds from above, ordered by molecular weight, smallest number first:
VDR inh,SMILES
-6.0%,Cc1nc2cc(NCc3cccs3)ccc2n1C
6.6%,Oc1ccc(/C=N/NC(=S)N2CCOCC2)cc1
7.9%,CS(=O)(=O)N1CCC(Oc2ccccc2C(=O)N2CCNC(=O)C2)CC1
8.9%,CC(NC(=O)C1CCN(C(=O)N2CCOc3ccccc32)CC1)c1ccccc1 (configuration not stated)
-4.3%,COc1cc(NC2c3ccccc3C(=O)N2c2cc(C)ccn2)cc(OC)c1OC (configuration not stated)

Remaining list, next part.
VDR inh,SMILES
-10.4%,COc1ccc(NC2=CC(=O)CC(C)(C)C2)cc1
-13.5%,Cc1onc(C(=O)N2CCN(Cc3ccccc3)CC2)c1[N+](=O)[O-]
11.7%,CCOC(=O)C(CC)N1CCN(Cc2ccc(F)cc2)C(=O)C1=O (configuration not stated)
48.7%[activator],O=C(O)CSc1nc2ccccc2nc1N1CCCCC1
0.2%,N#C/C(C(=O)Oc1ccccc1)=C1\C=CC=CN1
-11.9%,COc1ccc(/C=C/CN2CCCC(C(=O)c3cc(F)ccc3F)C2)cc1 (configuration not stated)
-2.6%,O=C1CCN(S(=O)(=O)c2ccc(Cl)cc2)CC1
20.1%,O=C(CSc1nc2c([nH]c3ccccc32)c(=O)n1-c1ccccc1)N1CCCCCC1
-5.8%,NC(=O)C1CCN(C(=O)CCc2ccsc2)CC1
-1.2%,C=C[C@@H](C)N(Cc1ccc(OC)cc1)S(=O)(=O)N(Cc1ccccc1)[C@H](C=C)C(C)C
-11.8%,CCc1ccccc1NC(=O)c1cc2sccc2n1C
0.2%,CCN(CC)S(=O)(=O)c1ccc2c(c1)N(CC(=O)Nc1c(C)cc(C)cc1C)C(=O)C1CCCN21 (configuration not stated)
4.7%,CCc1cc(C(=O)NNC(=S)NCC2CCCO2)cs1 (configuration not stated)
11.9%,COc1cc2c(cc1OC)C(COc1ccccc1OC)N(C(=O)c1ccc(S(=O)(=O)N(C)C)cc1)CC2 (configuration not stated)
-0.6%,CCOC(=O)c1ccc(S(=O)(=O)N2CCNCC2)cc1
-1.0%,CCN1CCN(c2cc(C)c3cc(NC(=S)NCCCN4CCc5ccccc5C4)ccc3n2)CC1
5.5%,O=C(CSCc1ccc(F)cc1)NCc1ccc2c(c1)OCO2
-10.0%,Cc1ccc(C(=O)N/C(=C\c2ccc(F)cc2)C(=O)NCCCn2ccnc2)cc1
-15.3%,O=C(O)c1cc([N+](=O)[O-])ccc1Oc1ccccc1
-21.5%,CCCCCCN1C=CC=C/C1=C/C=C(C#N)C#N
3.9%,Cc1occc1C(=O)Nc1nnc(-c2cccs2)s1
-8.2%,COc1ccc(NC(=O)NCCc2cccc(Cl)c2)cc1OC
-4.8%,Cc1cccc(NC(=O)CSc2c3c(nc4ccccc24)CCC3)n1
-0.3%,CCOC(=O)c1cnc(-n2cc(C)cn2)nc1Nc1ccccc1OCC
-16.0%,COc1cc(C(=O)N2CCN(S(=O)(=O)c3cccs3)CC2)cc(OC)c1C
0.7%,COc1cccc(/C=C/C(=O)OCC(=O)N(C)CC(=O)Nc2ccccc2Cl)c1OC
3.5%,O=C1c2ccccc2C(=O)N1OCCOCCOCCON1C(=O)c2ccccc2C1=O
-9.7%,CN(C)CCCOc1ccc(C(C)(C)c2ccccc2)cc1
-5.9%,CCOC(=O)N1[C@@H]2C=C(C)[C@@H]2[C@@H]2[C@@H](C)C(=O)N21
8.1%,CCOC(=O)c1cc(C)n(CC2CCC(C(=O)Nc3ccc(C)c(F)c3)CC2)c1C (configuration not stated)
-15.2%,CC(OC(=O)CCc1nc(=O)c2ccccc2n1C)C(=O)NCc1ccc2c(c1)OCO2 (configuration not stated)
-9.1%,CCOC(=O)C1=C(C)NC(=S)NC1c1ccsc1 (configuration not stated)
-16.0%,CCC1CCCCN1C(=O)COC(=O)c1ccc(Br)o1 (configuration not stated)
25.1µM*,CC(C)(C)c1cc(C(c2cccnc2)N2CCN(CCO)CC2)cc(C(C)(C)C)c1O (configuration not stated)
-13.4%,CCN(CCCNC(=O)CSc1cc(=O)n(CC)c2ccccc12)c1ccccc1
11.2%,COc1ccc(C(=O)OCC(=O)NCC2CCCCC2)c(OC)c1
-2.5%,CCCOC(=O)Nc1sc2c(c1C(=O)OCC)CCC2

The list is partial (hit frequency here may not be typical).
